# FGF22 binding: FGF22 (human) thermal shift binding; 340,000 tested, 1.5% active; AID 651658; calls only at 9.99 µM; recombinant FGF22 thermal shift, SYPRO orange fluorescence; percent of sucrose octasulfate shift, DMSO zero; Q9HCT0;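 active means melting point raised past a set limit in the mean and every replicate; three in four hits are not shown here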
# Target sequence (Q9HCT0 whole entry, looked up): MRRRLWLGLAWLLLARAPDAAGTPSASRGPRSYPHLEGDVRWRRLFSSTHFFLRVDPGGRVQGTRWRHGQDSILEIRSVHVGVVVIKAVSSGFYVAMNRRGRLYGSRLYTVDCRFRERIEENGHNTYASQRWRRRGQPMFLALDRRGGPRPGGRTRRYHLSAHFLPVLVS
# MLL AF4-AF9 inh: inhibitors of human MLL-AF4/AF9 interaction | P42568 | AlphaScreen, biotin-AF4 peptide binding to FLAG-AF9 | inhibition, % at 10 µM | 350,000 tested, 0.47% active | AID 651704;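 active means every replicate reaching a set inhibition limit, whatever the replicate mean, cut at about 25% in these data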;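 further: 0% = plate neutral control median and 100% = total signal loss; the record names both 10 and 1 µM as test concentration; the first replicate is given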
# Target sequence (P42568 whole entry, looked up): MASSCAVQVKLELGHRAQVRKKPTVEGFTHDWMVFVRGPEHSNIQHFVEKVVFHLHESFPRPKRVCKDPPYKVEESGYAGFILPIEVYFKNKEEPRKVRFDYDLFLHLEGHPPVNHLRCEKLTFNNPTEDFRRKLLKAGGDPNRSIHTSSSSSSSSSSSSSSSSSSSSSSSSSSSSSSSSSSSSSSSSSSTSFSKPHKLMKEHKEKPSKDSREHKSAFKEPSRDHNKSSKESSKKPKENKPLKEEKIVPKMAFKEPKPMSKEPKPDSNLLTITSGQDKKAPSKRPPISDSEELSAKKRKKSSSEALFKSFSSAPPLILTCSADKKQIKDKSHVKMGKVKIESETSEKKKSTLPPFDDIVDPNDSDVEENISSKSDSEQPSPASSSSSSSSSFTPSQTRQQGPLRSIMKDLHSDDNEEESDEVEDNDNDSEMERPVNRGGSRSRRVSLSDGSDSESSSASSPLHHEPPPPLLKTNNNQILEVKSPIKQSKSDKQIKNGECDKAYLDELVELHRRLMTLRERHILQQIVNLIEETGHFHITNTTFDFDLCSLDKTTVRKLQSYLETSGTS
# The depositor's hits bear a star; i = inactive; & = joins results of further samples. These rows are one share of the data. The share of hits here may be higher or lower than overall.
molecule,FGF22 binding,MLL AF4-AF9 inh
C[C@H]1CCCCO[C@@H](CN(C)C(=O)NC2CCCCC2)[C@@H](C)CN([C@@H](C)CO)C(=O)c2cc(NC(=O)Nc3ccc(F)cc3)ccc2O1,i,0.6
C[C@H](CO)N1C[C@H](C)[C@@H](CN(C)C(=O)Nc2ccc3c(c2)OCO3)Oc2ccc(NS(=O)(=O)c3cccs3)cc2C1=O,i,-2.6
C[C@@H]1CN([C@H](C)CO)C(=O)c2cccc(NC(=O)Nc3cccc4ccccc34)c2O[C@@H]1CN(C)S(=O)(=O)c1cccs1,i,-0.2
O=C(C[C@@H]1CC[C@@H](NC(=O)C2CC2)[C@H](CO)O1)Nc1ccccc1,i,-0.5
C[C@@H]1CN([C@H](C)CO)C(=O)c2cc(C#Cc3ccncc3)cnc2O[C@@H]1CN(C)CC1CCCC1,i,-4.7
C[C@@H]1CN([C@@H](C)CO)C(=O)c2cc(NC(=O)Nc3ccc(C(F)(F)F)cc3)ccc2O[C@@H](C)CCCCO[C@@H]1CN(C)CC1CCCCC1,i,0.8
CC(=O)N[C@H]1CC[C@@H](CC(=O)NCC2CCCCC2)O[C@@H]1CO,i,-1.2
CC(C)CC#Cc1cnc2c(c1)C(=O)N([C@@H](C)CO)C[C@@H](C)[C@@H](CN(C)C(=O)Cc1ccncc1)O2,i,2.0
C[C@@H]1CCCCO[C@H](CN(C)C(=O)CCCN(C)C)[C@@H](C)CN([C@H](C)CO)C(=O)c2cc(NS(=O)(=O)c3ccc(F)cc3)ccc2O1,i,-1.3
C[C@@H]1CN([C@@H](C)CO)C(=O)c2cc(NC(=O)CCN3CCOCC3)ccc2O[C@@H]1CN(C)CC1CCCCC1,i,0.5
C[C@H](CO)N1C[C@H](C)[C@H](CN(C)S(=O)(=O)c2ccc(F)cc2)Oc2ccc(NC(=O)Nc3ccc4c(c3)OCO4)cc2CC1=O,i,2.4
CO[C@@H]1CN(C)C(=O)c2cc(NC(=O)C3CCCC3)ccc2OC[C@@H](C)N(C(=O)CC2CC2)C[C@@H]1C,i,-3.7
N#C[C@@H]1[C@H](c2ccccc2C2=CCCCC2)[C@H](CO)N1C(=O)CN1CCOCC1,i,-1.5
C[C@H]1CN([C@@H](C)CO)C(=O)Cc2cc(NC(=O)Nc3cccc4ccccc34)ccc2O[C@H]1CN(C)Cc1ccc(Oc2ccccc2)cc1,i,-0.4
C[C@H]1CN([C@@H](C)CO)C(=O)c2cc(NC(=O)Cc3cn(C)c4ccccc34)ccc2O[C@@H]1CN(C)C(=O)Nc1cccc2ccccc12,i,0.3
O=C(C[C@H]1C[C@@H]2c3cc(NC(=O)c4ccc5c(c4)OCO5)ccc3O[C@@H]2[C@@H](CO)O1)NCc1cccnc1,i,-0.9
CN1C(=O)c2cc(NC(=O)c3cccc(F)c3)ccc2OC[C@@H]2O[C@@H](CC(=O)NCc3ccccc3Cl)CC[C@@H]21,i,-0.4
CO[C@H]1CN(C)C(=O)c2cc(NC(C)=O)ccc2OC[C@@H](C)N(Cc2ccccc2C(=O)O)C[C@H]1C,i,-2.7
CO[C@@H]1CN(C)C(=O)c2cc(NC(=O)c3nc4ccccc4s3)ccc2OC[C@H](C)N(Cc2cccnc2)C[C@H]1C,i,6.9
C[C@H](CO)N1C[C@H](C)[C@@H](CN(C)CC2CCCCC2)Oc2ccc(NC(=O)CCN3CCOCC3)cc2CC1=O,i,8.1

# By substructure: the compounds so far containing sulfur.
molecule,FGF22 binding,MLL AF4-AF9 inh
C[C@H](CO)N1C[C@H](C)[C@@H](CN(C)C(=O)Nc2ccc3c(c2)OCO3)Oc2ccc(NS(=O)(=O)c3cccs3)cc2C1=O,i,-2.6
C[C@@H]1CN([C@H](C)CO)C(=O)c2cccc(NC(=O)Nc3cccc4ccccc34)c2O[C@@H]1CN(C)S(=O)(=O)c1cccs1,i,-0.2
C[C@@H]1CCCCO[C@H](CN(C)C(=O)CCCN(C)C)[C@@H](C)CN([C@H](C)CO)C(=O)c2cc(NS(=O)(=O)c3ccc(F)cc3)ccc2O1,i,-1.3
C[C@H](CO)N1C[C@H](C)[C@H](CN(C)S(=O)(=O)c2ccc(F)cc2)Oc2ccc(NC(=O)Nc3ccc4c(c3)OCO4)cc2CC1=O,i,2.4
CO[C@@H]1CN(C)C(=O)c2cc(NC(=O)c3nc4ccccc4s3)ccc2OC[C@H](C)N(Cc2cccnc2)C[C@H]1C,i,6.9

# (more compounds)
molecule,FGF22 binding,MLL AF4-AF9 inh
CO[C@H]1CN(C)C(=O)c2ccc(NC(=O)C3CCOCC3)cc2OC[C@@H](C)N(C(C)=O)C[C@@H]1C,i,2.7
C[C@@H]1CN([C@H](C)CO)C(=O)c2ccccc2-c2ccccc2CO[C@@H]1CN(C)Cc1ccc(Oc2ccccc2)cc1,i,-3.7
COCC(=O)N1CCCCN2[C@H](C1)[C@H](c1ccc(-c3ccc(F)cc3)cc1)[C@@H]2CO,i,13.0
N#C[C@@H]1[C@H](c2ccc(C#Cc3ccccc3F)cc2)[C@H](CO)N1C(=O)C1CCOCC1,i,-1.4
CO[C@H]1CN(C)C(=O)c2cc(NC(=O)CC(F)(F)F)ccc2OC[C@H](C)N(C(=O)C2CCOCC2)C[C@@H]1C,i,-2.3
CCCNC(=O)C[C@@H]1CC[C@@H]2[C@H](COc3ccc(NC(=O)NC(C)C)cc3C(=O)N2C)O1,i,-2.1
CO[C@@H]1CN(C)C(=O)c2cc(NS(=O)(=O)c3ccccc3)ccc2OC[C@H](C)NC[C@H]1C,i,-2.3
C[C@@H]1CN([C@H](C)CO)C(=O)c2cccc(NC(=O)Nc3ccc4c(c3)OCO4)c2O[C@H]1CN(C)Cc1ccc(Cl)c(Cl)c1,i,2.5
CC(C)NC(=O)Nc1cccc2c1O[C@H](CN(C)Cc1ccc(C(=O)O)cc1)[C@H](C)CN([C@H](C)CO)C2=O,i,0.7
C[C@@H]1CN([C@@H](C)CO)C(=O)c2cc(NC(=O)C3CCCCC3)ccc2O[C@@H](C)CCCCO[C@@H]1CN(C)Cc1ccccc1,i,7.5
O=C(O)C[C@@H]1C[C@H]2c3cc(NC(=O)c4ccc5c(c4)OCO5)ccc3O[C@H]2[C@@H](CO)O1,i,-2.5
CN1C(=O)c2cc(NC(=O)c3cccs3)ccc2OC[C@@H]2O[C@H](CC(=O)O)CC[C@@H]21,i,-1.7
COCC#Cc1cnc2c(c1)C(=O)N([C@H](C)CO)C[C@@H](C)[C@@H](CN(C)C(C)=O)O2,i,-11.1
COc1ccc2c3c(n(C)c2c1)[C@@H](CO)N(CC1CC1)CC31CCN(C(=O)c2ccc3c(c2)OCO3)CC1,i,4.2
C[C@@H]1CCCCO[C@H](CN(C)C(=O)CCC(F)(F)F)[C@H](C)CN([C@@H](C)CO)C(=O)c2cc(NC(=O)Cc3ccccc3)ccc2O1,i,1.1
CN1C(=O)c2cc(NS(=O)(=O)c3ccc(Cl)cc3)ccc2OC[C@H]2O[C@H](CC(=O)N3CCc4ccccc4C3)CC[C@H]21,i,0.0
CO[C@H]1CN(C)C(=O)c2ccc(NC(=O)NC(C)C)cc2OC[C@@H](C)N(S(C)(=O)=O)C[C@@H]1C,i,-2.0
CN(C)CC(=O)Nc1ccc2c(c1)[C@H]1C[C@@H](CC(=O)NCc3ccccn3)O[C@H](CO)[C@H]1O2,i,-2.4
O=C(CCN1CCCCC1)NCC[C@@H]1CC[C@@H](NC(=O)C2CCC2)[C@@H](CO)O1,i,-0.2
C[C@H]1CN([C@@H](C)CO)C(=O)c2cc(NC(=O)Nc3ccc(F)cc3)ccc2O[C@H]1CN(C)C(=O)Nc1ccc(F)cc1,i,0.8

# More results follow.
# Each structure is followed by: FGF22 binding	MLL AF4-AF9 inh
> C[C@@H]1CN([C@H](C)CO)C(=O)c2cc(C#Cc3cccnc3)cnc2O[C@H]1CN(C)C(=O)CC1CC1
 : i	-18.5
> O=C(c1ccc(F)cc1)N1C[C@H]2[C@@H](c3ccccc31)[C@@H](CO)N2Cc1ccc2c(c1)OCO2
 : i	0.1
> COc1ccc(S(=O)(=O)N(C)C[C@H]2Oc3ccc(NC(=O)CCC(F)(F)F)cc3CC(=O)N([C@H](C)CO)C[C@H]2C)cc1
 : i	-3.4
> Cc1noc(C)c1NC(=O)N(C)C[C@H]1Oc2c(NC(=O)C3CC3)cccc2C(=O)N([C@@H](C)CO)C[C@@H]1C
 : i	-2.8
> CNC[C@@H]1Oc2c(N)cccc2C(=O)N([C@H](C)CO)C[C@H]1C
 : i	-2.2
> COc1cccc(-c2ccc3n(c2=O)C[C@H]2[C@H](CO)[C@@H](C(=O)NCC4CC4)N(C(=O)NC(C)C)[C@@H]32)c1
 : i	-0.3
> C[C@@H]1CN([C@H](C)CO)S(=O)(=O)c2ccc(Br)cc2O[C@@H]1CN(C)S(=O)(=O)c1ccccc1
 : i	-26.0
> Cc1noc(C)c1NC(=O)N(C)C[C@@H]1Oc2ncc(C#CC3CCCC3)cc2C(=O)N([C@H](C)CO)C[C@H]1C
 : i	-2.8
> C[C@H](CO)N1C[C@H](C)[C@H](CN(C)C(=O)C2CCCCC2)Oc2ncc(/C=C/c3ccccc3)cc2C1=O
 : i	5.2
> COc1cccc(-c2cnc3c(c2)C(=O)N([C@H](C)CO)C[C@H](C)[C@@H](CN(C)C(=O)CC2CC2)O3)c1
 : i	-2.8
> C[C@@H]1CCCCO[C@H](CN(C)Cc2ccncc2)[C@H](C)CN([C@H](C)CO)C(=O)c2cc(NS(=O)(=O)c3cccs3)ccc2O1
 : i	2.1
> COc1ccccc1-c1cn(CC[C@@H]2CC[C@H](NC(=O)c3ccccc3F)[C@H](CO)O2)nn1
 : i	-0.6
> C[C@H](CO)N1C[C@H](C)[C@H](CN(C)S(=O)(=O)c2ccccc2)Oc2c(NS(=O)(=O)c3ccccc3)cccc2C1=O
 : i	0.1
> COc1cc(CN2CC3(CN(C)C3)c3c([nH]c4cc(OC)ccc34)[C@H]2CO)cc(OC)c1
 : i	5.5
> CO[C@H]1CN(C)C(=O)c2cc(NC(=O)c3cnccn3)ccc2OC[C@@H](C)N(C(C)=O)C[C@@H]1C
 : i	-3.4
> O=C(C[C@@H]1CC[C@@H](NC(=O)C2CCC2)[C@H](CO)O1)NC1CCCCC1
 : i	-1.0
> O=C(Nc1ccccc1F)N1CC2(C1)[C@@H](c1ccccc1)[C@@H](CO)N2C(=O)CC1CC1
 : i	-1.5
> CO[C@@H]1CN(C)C(=O)c2ccc(NC(=O)c3ccccc3)cc2OC[C@@H](C)N(C(=O)C2CC2)C[C@H]1C
 : i	-25.4
> CC(C)NC(=O)N(C)C[C@@H]1OCCCC[C@@H](C)Oc2ccc(NC(=O)CCC(F)(F)F)cc2C(=O)N([C@@H](C)CO)C[C@@H]1C
 : i	-0.6
> COc1ccc(S(=O)(=O)N(C)C[C@@H]2OCCCC[C@@H](C)Oc3ccc(NS(=O)(=O)c4ccc(C)cc4)cc3C(=O)N([C@H](C)CO)C[C@@H]2C)cc1
 : i	-2.3
> C/C=C/c1cnc2c(c1)C(=O)N([C@H](C)CO)C[C@@H](C)[C@@H](CN(C)Cc1cncnc1)O2
 : i	-15.6
> COc1ccccc1CN1CC2(C1)[C@H](c1ccccc1)[C@H](CO)N2Cc1ccccc1
 : i	10.3
> C[C@@H]1CN([C@H](C)CO)C(=O)c2cc(NS(C)(=O)=O)ccc2O[C@@H]1CN(C)Cc1ccc(C(=O)Nc2ccccc2N)cc1
 : i	-1.2
> Cc1noc(C)c1NC(=O)Nc1ccc2c(c1)C(=O)N(C)[C@H]1CC[C@H](CC(=O)N[C@H]3CCN(Cc4ccccc4)C3)O[C@H]1CO2
 : i	3.4
> C[C@H](CO)N1C[C@H](C)[C@@H](CN(C)C(=O)Nc2cccc3ccccc23)Oc2c(NC(=O)Nc3cccc4ccccc34)cccc2C1=O
 : i	2.9
> O=C(N[C@H]1CC[C@@H](CCNS(=O)(=O)c2ccc(F)cc2)O[C@@H]1CO)c1cnccn1
 : i	-2.7
> C[C@H]1CN([C@@H](C)CO)C(=O)CCCn2cc(nn2)CO[C@@H]1CN(C)C(=O)c1ccc2ccn(C)c2c1
 : i	-2.8&-3.5
> O=C(Nc1ccc2c(c1)OCO2)N[C@@H]1CC[C@H](CCNC(=O)C2CCC2)O[C@@H]1CO
 : i	-1.6
> C[C@H](CO)N1C[C@H](C)[C@@H](CN(C)C)Oc2ccc(NC(=O)CCN3CCOCC3)cc2CC1=O
 : i	-2.4
> COc1cccc(NC(=O)Nc2ccc3c(c2)C(=O)N(C)C[C@H](OC)[C@@H](C)CN(C)[C@@H](C)CO3)c1
 : i	8.6
> COc1cccc(S(=O)(=O)Nc2ccc3c(c2)[C@@H]2C[C@H](CC(=O)NCc4ccccc4F)O[C@H](CO)[C@@H]2O3)c1
 : i	2.2
> CN(C)CC(=O)Nc1ccc2c(c1)[C@@H]1C[C@H](CC(=O)NCC3CC3)O[C@@H](CO)[C@@H]1O2
 : i	-1.0
> C[C@@H]1CCCCO[C@H](CN(C)Cc2ccc(C(F)(F)F)cc2)[C@H](C)CN([C@@H](C)CO)C(=O)c2cc(NS(=O)(=O)c3ccc(Cl)cc3)ccc2O1
 : i	4.7
> CCCC#Cc1ccc2c(c1)O[C@@H](CN(C)C(=O)CN(C)C)[C@H](C)CN([C@H](C)CO)S2(=O)=O
 : i	3.4
> CC(C)NC(=O)N[C@H]1C=C[C@@H](CC(=O)N2CCCCC2)O[C@H]1CO
 : i	0.2
> CO[C@H]1CN(C)C(=O)c2cc(NC(=O)C3CCOCC3)ccc2OC[C@H](C)NC[C@@H]1C
 : i	-3.0
> C[C@H]1CN([C@@H](C)CO)C(=O)Cc2cc(NC(=O)Nc3ccc(C(F)(F)F)cc3)ccc2O[C@@H]1CN(C)Cc1ccc(C(=O)O)cc1
 : i	-1.2
> CC(=O)N(C)C[C@@H]1Oc2cc(-c3ccncc3)ccc2S(=O)(=O)N([C@@H](C)CO)C[C@H]1C
 : i	-1.6
> COc1ccc(CN(C)C[C@H]2OCc3cn(nn3)CCCC(=O)N([C@@H](C)CO)C[C@H]2C)cc1
 : i	0.4
> COc1ccccc1CNC(=O)C[C@H]1C[C@H]2c3cc(NC(=O)Nc4ccc(C(F)(F)F)cc4)ccc3O[C@H]2[C@@H](CO)O1
 : i	0.0
